# Screens deposited in PubChem by National Center for Advancing Translational Sciences (NCATS).
# GLA inh pH 4.5: qHTS Assay for Inhibitors of Human alpha-Galactosidase at pH 4.5; purified enzyme, 4-MU-alpha-Gal fluorescence, pH 4.5; activity change, negative = inhibition, % at 105 µM; 230,000 tested, under 10 active; inconclusive = small, poorly fitted or top-dose-only inhibition, or a rising curve; inactive = flat fitted curve, though single readings scatter; no compound was filed as active;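 further: 0% = full activity with enzyme and -100% = basal without enzyme; dose as in the result columns while the protocol names 77 µM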
# Rango release inh: qHTS Assay for Inhibitors of RanGTP induced Rango (Ran-regulated importin-beta cargo) - Importin beta complex dissociation | Snurportin-1 (Homo sapiens) + GTP-binding nuclear protein Ran (Homo sapiens) + Importin … | Biochemical FRET Rango-importin beta, RanGTP-induced dissociation | Potency, µM (top dose mostly 46.1 µM), without a hit: top-dose activity change, negative = inhibition | 340,000 compounds, 0.071% hits; active means falling FRET ratio curve, often poorly fitted, with flat reads before Ran was added; inconclusive means other falling curves, or compound fluorescence or quenching; inactive means flat or rising ratio curve;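 further: potency means the concentration at half of the fitted maximal effect; % of control where 0% means no effect; nearly all actives have a fitted effect of over 45% in size; -100% = wells without RanGTP and RCC1; the record marks most hits as doubtful in a second field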
#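 Rango FRET biosensor (snurportin-1 IBB flanked by N-terminal EYFP and C-terminal CFP10) at 0.1 uM, with 0.25 uM importin beta in PBS, 1mM DTT, 0.02% Tween-20, 0.1% BSA. 0.6 uM Ran, 2mM GTP and 0.2 uM RCC1 were then added for 45 min at room temperature. Inhibition read as loss of FRET rise.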
# miR-21 reporter: qHTS Assay for Modulators of miRNAs and/orActivators of miR-21; Potency, µM (highest dose often 38.3 µM), for the others: top-dose reporter change, positive = more light; 340,000 tested, under 10 active; AID 2288, 2010; HeLa miR-21 FLuc reporter, luciferase, 48 h; active = well fitted rising curve with a large enough effect; inconclusive = small, poorly fitted or top-dose-only effect; inactive = no such curve, though single readings can be large or run the other way;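 further: % of control where 0% means no effect; miR-21 action dims this reporter so a rising signal means less miR-21 action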
#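 Luminescence from a firefly luciferase reporter carrying a miR-21 binding site downstream, stably expressed under a CMV promoter in HeLa cells that make miR-21 endogenously, reports miRNA modulation after 48 h compound exposure up to approximately 40uM final.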
# Rango complex inh: qHTS Assay for Inhibitors of Rango (Ran-regulated importin-beta cargo) - Importin beta complex formation; Potency, µM (highest dose often 92.2 µM), for the others: top-dose inhibition of complex formation; Rango CFP/YFP FRET sensor + importin beta, 45 min; 340,000 compounds, 0.031% hits; active = rising FRET ratio curve, often small or poorly fitted; inconclusive = mostly compound fluorescence or quenching in the first reads; inactive = flat curves in all reads;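 further: potency means the concentration at half of the fitted maximal effect; 0% = DMSO wells and 100% = buffer wells lacking importin beta; nearly all actives have a fitted effect of over 15% in size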
# Target sequence (Q14974 whole entry, looked up): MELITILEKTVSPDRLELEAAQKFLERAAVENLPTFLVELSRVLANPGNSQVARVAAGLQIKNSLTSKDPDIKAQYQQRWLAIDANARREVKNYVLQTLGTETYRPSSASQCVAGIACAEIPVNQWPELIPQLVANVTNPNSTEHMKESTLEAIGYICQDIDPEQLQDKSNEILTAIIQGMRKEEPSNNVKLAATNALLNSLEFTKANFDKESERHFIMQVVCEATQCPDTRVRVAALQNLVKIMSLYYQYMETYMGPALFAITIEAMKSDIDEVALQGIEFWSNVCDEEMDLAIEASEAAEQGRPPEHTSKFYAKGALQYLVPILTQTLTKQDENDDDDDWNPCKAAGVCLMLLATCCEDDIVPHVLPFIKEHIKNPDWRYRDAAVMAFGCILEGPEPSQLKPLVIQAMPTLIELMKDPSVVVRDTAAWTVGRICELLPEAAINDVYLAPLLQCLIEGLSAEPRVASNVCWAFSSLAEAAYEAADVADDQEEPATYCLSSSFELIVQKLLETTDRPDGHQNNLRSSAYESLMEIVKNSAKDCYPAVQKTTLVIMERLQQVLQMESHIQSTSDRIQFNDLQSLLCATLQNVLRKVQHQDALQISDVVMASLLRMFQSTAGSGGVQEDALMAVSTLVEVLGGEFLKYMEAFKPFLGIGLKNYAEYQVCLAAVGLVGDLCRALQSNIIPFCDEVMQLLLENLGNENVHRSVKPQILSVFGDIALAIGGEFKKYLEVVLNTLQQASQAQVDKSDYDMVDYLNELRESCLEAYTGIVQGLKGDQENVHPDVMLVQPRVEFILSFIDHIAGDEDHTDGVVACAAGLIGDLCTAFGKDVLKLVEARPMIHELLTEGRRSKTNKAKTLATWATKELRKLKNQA
#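 FRET biosensor (snurportin 1 IBB flanked by EYFP and cerulean), 50 nM, with compound 5 min, then 0.125 microM importin beta in PBS, 1 mM DTT, 0.02% Tween-20, 0.1% BSA. CFP/YFP ratio read after 45 min at room temperature; pre-read flags interference.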
# * hit, by the source's call; ? = inconclusive; . = no result given; & = joins results of further samples.
# The line under a structure holds: GLA inh pH 4.5, Rango release inh, miR-21 reporter, Rango complex inh
- NNC(=O)CNc1cccc(Br)c1
  -2, -2%, -1%, 1.3%
- CCN(c1ccccc1)S(=O)(=O)c1cc2c3c(c1)C(C)C(=O)N3CCC2 (configuration not stated)
  ., -11%, -5%, -5.9%
- CC(C)CCNC(=O)CN(Cc1ccc2c(c1)OCO2)C(=O)CCC(=O)Nc1ccccn1
  -2, -12%, 1%, 7.1%
- COc1ccc(Cc2c(O)nc(SCC(=O)c3ccc(OC)cc3)[nH]c2=O)cc1
  4, 16%, -29%, -2.4%
- Cc1cccc(Cc2nnc(CCC(=O)N(C)C3CCOC3)o2)c1 (configuration not stated)
  -8, 0%, -21%, 2.2%
- O=C(Nc1ccccc1C(=O)O)c1cccc(NC(=O)c2ccco2)c1
  ., -17%, 4%, -0.2%
- Cc1ccc(-c2csc(N)n2)cc1
  ., -12%, ., 0.4%
- COc1ccc(C2=NN(CCC(=O)NCc3ccc4c(c3)OCO4)C(=O)CC2)cc1
  -2, 7%, -5%, 0.6%
- COc1ccccc1NC(=S)N1CCN(C(=O)C2CCCO2)CC1 (configuration not stated)
  5, 14%, -1%, 1.0%
- Fc1cccc(C2CC(c3cccc(Br)c3)Nc3nnnn32)c1 (configuration not stated)
  -11, -3%, 1%, 1.9%
- O=C(C1=C(O)C(=O)N(CCN2CCOCC2)C1c1ccccc1)c1cccs1 (configuration not stated)
  ., 4%, ., -0.1%
- CCOC(=O)c1ccc(NC(=O)CNC(=O)c2ccccc2)cc1
  -23, 5%, -5%, 0.1%
- CCOC(=O)NC1(C(F)(F)F)N=C(c2ccccc2)NC1=O (configuration not stated)
  3, 25%, -1%, -0.4%
- Cc1ccc(NC(=O)Cn2c(CCC(=O)O)ccc2-c2cccs2)cc1
  5, -17%, 3%&-7%, -1.6%
- Cc1ccc(-c2nc(=S)c3c(n2CCN2CCOCC2)CC(C)(C)OC3)cc1
  -1, 6%, -3%, 0.8%
- C=CCNC(=S)Nc1ccccc1-c1nnc2n1CCCCC2
  ., 23%, 1%, -1.2%
- Cc1ccc(C(O)C(=O)c2ccco2)cc1 (configuration not stated)
  ., -3%, ., 0.3%
- Cc1ccc(N2CCN(/N=C/c3c(C)nn(-c4ccccc4)c3Cl)CC2)cc1
  0, 1%, -2%, 0.0%
- Cc1cc(C)n(C(C)CNS(=O)(=O)c2ccc(Cl)cc2)n1 (configuration not stated)
  ., -1%, -3%, -2.5%
- Cc1[nH]nc2oc(=O)c(CCO)c(C)c12
  2, -4%, -3%, -6.0%
- COc1ccc(NCc2nnc(SCC(=O)Nc3cccc(C)c3)o2)cc1
  -3, 7%, -5%, 0.4%
- O=C(Cc1ccc2c(c1)OCCO2)Nc1cc(C(F)(F)F)ccc1N1CCOCC1
  ., -6%, ., 2.0%
- CN1CCN(C(=O)/C=C/c2ccccc2)CC1
  ., -3%, -9%, -0.3%
- CCCN(CCC)C(=O)c1ccc2c(c1)N(CC)C(=O)c1ccccc1S2(=O)=O
  ., -7%, -1%, 0.2%
- CC(=O)N[C@H]1[C@H]([C@H](O)[C@H](O)CO)OC(C(=O)O)=C[C@@H]1O
  ., 0%, ., -1.2%
- O=C(Nc1ncc(S(=O)(=O)c2ccc([N+](=O)[O-])cc2)s1)c1ccccc1F
  -17, 14%, -6%, -1.8%
- CCCOC(=O)Nc1nc(-c2ccc(C)cc2)c(C)s1
  -2, 16%, -36%, -0.1%
- COc1ccc(NC(=O)c2ccc(Cn3cc(Cl)cn3)cc2)cc1
  7, -2%, 3%, 2.8%
- Cc1ccc(S(=O)(=O)N2CCC(c3nnc(SCCN4CCCC4)n3C)CC2)cc1
  ., -6%, 3%, 5.6%
- Cc1ccc(C(=O)Nc2ccc(C(=O)N3CCCCC3C)cc2)cc1 (configuration not stated)
  -3, 2%, -12%, -2.7%
- CCn1c(Cc2ccc(OC)cc2)nnc1SCC(=O)Nc1nc2ccccc2s1
  0, 13%, -1%, 2.2%
- C=C1CCN([C@H](C(=O)NCc2ccc(OC)cc2)C(C)C)S(=O)(=O)c2ccccc21
  4, -19%, 1%, -0.3%
- COc1ccc(C2C(C#N)=C(N)N(Nc3ccccc3)C3=C2C(=O)CC(C)(C)C3)cc1C (configuration not stated)
  2, ?, 17%, ?
- COc1ccc(C2CC(=O)C(C=NCC(C)C)=C(O)C2)cc1 (configuration not stated)
  ., -8%, -4%, -1.6%
- OCC1CCCN(C2CCN(Cc3nc(Cc4cccc(C(F)(F)F)c4)no3)CC2)C1 (configuration not stated)
  4, -10%, 0%, 6.3%
- COCCN(C(=O)c1ccc(N2CCCC2=O)cc1)c1c(N)n(CC(C)C)c(=O)[nH]c1=O
  ., -18%, ., -0.8%
- CCN(CC(=O)Nc1ccc(NC(C)=O)cc1)C(=O)c1cccc(S(=O)(=O)N2c3ccccc3CC2C)c1 (configuration not stated)
  ., 7%, ., -5.0%
- Cc1ccccc1Cn1nc(C)c(NC(=O)c2noc3c2CC(C(C)(C)C)CC3)c1C (configuration not stated)
  -2, 0%, 11%, -0.1%
- CC1CN(C(=O)Cc2ccc(-c3ccccc3)cc2)CC(C)O1 (configuration not stated)
  7, 10%, -5%, -2.3%
- O=C(NCCCn1ccnc1)c1cccc(Cl)c1
  ., 16%, -1%, -0.9%
- CC(NC(=O)Nc1ccccc1F)C(C)(C)C (configuration not stated)
  2, 7%, 0%, -0.6%
- Cc1cc(C)c2c(ccc3ccccc32)n1
  ., -11%, ., -2.7%
- CCNC(=S)NNc1nc(N2CCCCC2)nc(N2CCOCC2)n1
  4, -14%, 0%, -0.2%
- COc1ccc(CCNC(=O)CN2CCCc3ccccc32)cc1OC
  -5, -2%, -13%, -2.6%
- Cc1ccc(CNS(=O)(=O)c2ccc([N+](=O)[O-])cc2)cc1
  ., -9%, -4%, 0.2%
- CC(Oc1ccc(F)cc1)C(=O)Nc1ccc(N2CCOCC2)cc1N1CCOCC1 (configuration not stated)
  ., -17%, ., 0.4%
- C#CCOCCOCCOCCNc1nc(N2CCN(C(=O)Cn3cc(CC(C)O)nn3)CC2)nc(N2CCN(C(=O)[C@H]([C@@H](C)CC)n3cc(CCCCN)nn3)CC2)n1 (some centres not stated)
  ., 8%, ., 0.2%
- COc1ccccc1C(=O)C1CCCN(C(=O)c2cc(CC(C)C)nc(C)n2)C1 (configuration not stated)
  -2, 5%, -6%, 7.4%
- CCc1ccc(NC(=S)N(CCOC)C2CCN(C(C)=O)CC2)cc1
  ., -10%, -5%, -0.1%
- NC(=O)c1sc2nc3c(cc2c1N)CCC3
  7, 5%, -18%, -2.3%
- COc1ccc(-c2nc(CS(=O)CC(=O)NCc3ccc4c(c3)OCO4)c(C)o2)cc1 (configuration not stated)
  0, 1%, -8%, 1.6%
- COc1ccc(NC(=O)CSc2nnnn2-c2ccccc2F)cc1
  ., -4%, -22%, -0.4%
- Cc1cc(C)c(C(=O)C(C)OC(=O)Cc2n[nH]c(=O)c3ccccc23)cc1C (configuration not stated)
  ., 9%, -9%, -0.2%
- C=CCn1c(SCc2nc3ccccc3c(=O)[nH]2)nnc1-c1cc2cc(Cl)ccc2o1
  7, -6%, -6%, 0.4%
- COc1ccc(NC(=O)c2ccc(COc3ccccc3Br)o2)cc1OC
  -5, -4%, 1%, -5.2%
- Cc1ccc(S(=O)(=O)CC(=O)Nc2nc(-c3ccccc3)cs2)cc1
  -1, 1%, 8%, 1.6%
- Cc1cc(C)c(-c2csc(Cc3nc(-c4cc5ccccc5oc4=O)cs3)n2)cc1C
  -1, 1%, -8%, 2.4%
- O=C(CNC(=O)c1ccccc1)NCC1COc2ccccc2O1 (configuration not stated)
  4, 10%, -3%, 0.4%
- Cc1ccc(CC(=O)NCCC(=O)O)cc1
  -22, -9%, 3%, -2.8%
- CC(=O)Nc1ccc(N(C(=O)CNC(=O)c2ccco2)C(C(=O)NC2CCCC2)c2ccco2)cc1 (configuration not stated)
  ., -21%, -5%, ?

# Molecules listed so far that contain a tert-butyl group:
# The line under a structure holds: GLA inh pH 4.5, Rango release inh, miR-21 reporter, Rango complex inh
- Cc1ccccc1Cn1nc(C)c(NC(=O)c2noc3c2CC(C(C)(C)C)CC3)c1C (configuration not stated)
  -2, 0%, 11%, -0.1%
- CC(NC(=O)Nc1ccccc1F)C(C)(C)C (configuration not stated)
  2, 7%, 0%, -0.6%

# An excerpt of these results, with tabs.
smiles	GLA inh pH 4.5	Rango release inh	miR-21 reporter	Rango complex inh
Cc1ccccc1Cn1nc(C)c(NC(=O)c2noc3c2CC(C(C)(C)C)CC3)c1C (configuration not stated)	-2	0%	11%	-0.1%
CC1CN(C(=O)Cc2ccc(-c3ccccc3)cc2)CC(C)O1 (configuration not stated)	7	10%	-5%	-2.3%
O=C(NCCCn1ccnc1)c1cccc(Cl)c1	.	16%	-1%	-0.9%

# Filtered by structure, the compounds so far with a nitro group on carbon (2)
# The line under a structure holds: GLA inh pH 4.5, Rango release inh, miR-21 reporter, Rango complex inh
- O=C(Nc1ncc(S(=O)(=O)c2ccc([N+](=O)[O-])cc2)s1)c1ccccc1F
  -17, 14%, -6%, -1.8%
- Cc1ccc(CNS(=O)(=O)c2ccc([N+](=O)[O-])cc2)cc1
  ., -9%, -4%, 0.2%

# Additional results follow:
# The line under a structure holds: GLA inh pH 4.5, Rango release inh, miR-21 reporter, Rango complex inh
- Cc1onc(-c2ccccc2)c1C(=O)OCC(=O)N(C)c1c(N)n(Cc2ccccc2)c(=O)[nH]c1=O
  ., -14%, ., -5.5%
- COc1ccccc1CNCC(=O)N1CC(=O)Nc2ccccc21
  -4, -7%, -4%, 0.3%
- O=C(NCC1(N2CCOCC2)CCCCC1)c1ccc(S(=O)(=O)Nc2ccccc2F)cc1
  ., 23%, -5%, 6.4%
- COc1ccccc1CNC(=O)COc1ccc(S(=O)(=O)N2CCOCC2)cc1C
  ., 12%, 0%, 2.8%
- CCN(CC)CCN(Cc1cc2ccc(C)cc2[nH]c1=O)C(=O)Nc1ccc(Cl)cc1
  -3, -17%, -41%, -0.4%
- COc1ccc(C(CNC(=O)c2ccc(N3CCCC3=O)cc2)N(C)C)cc1 (configuration not stated)
  -4, 6%, -11%, -2.0%
- COc1ccc(CN(Cc2cccn2C)S(=O)(=O)c2ccc(C)cc2)cc1
  -5, -9%, -3%, -2.6%
- CCCn1c(O)c(/C=C2\C=NN=C2c2ccccc2)sc1=S
  4, 47%, -9%, -0.2%
- COc1cc2c(cc1OC)CN(C(=O)CN1C(=O)c3ccc([N+](=O)[O-])cc3C1=O)CC2
  ., -7%, ., 3.3%
- CN(CC(=O)Nc1c(Cl)cccc1Cl)C(=O)Cc1ccsc1
  ., 21%, ., -0.5%
- CC(=O)Nc1ccc(S(=O)(=O)Nc2ccc(S(=O)(=O)N3CCCCCC3)cc2)cc1
  -4, -15%, -7%, 8.6%
- CC(=O)Nc1sc(N/N=C\c2ccccc2)nc1-c1cccs1
  -3, -5%, -25%, -0.5%
- COc1ccccc1Cc1nc(-c2cccnc2)no1
  4, 5%, -43%, -1.9%
- CSc1ccccc1C(=O)C1CCCN(S(=O)(=O)c2c(C)noc2C)C1 (configuration not stated)
  -13, -22%, 0%, -5.4%
- Cc1onc(-c2c(F)cccc2Cl)c1C(=O)N1CCc2ccccc21
  -1, -8%, 7%, -0.4%
- O=c1oc(-c2ccccc2F)nc2c1cnn2-c1ccccc1
  5, -6%, 1%, -1.8%
- COc1ccccc1-c1c(C)nn2c(N3CCCCCC3)cc(C)nc12
  -4, 18%, ?, -1.7%
- COc1ccc([N+](=O)[O-])cc1/C=N/NC(=O)CNC(=O)c1cccc(F)c1
  -9, 8%, -5%, -2.1%
- CCOC(=O)c1ccc(NC(=O)CCC(CC)C(=O)O)cc1 (configuration not stated)
  2, 29%, -9%, 2.6%
- Cc1cccc(CN2[C@@H](CC(C)C)COCCS2(=O)=O)c1
  ., -1%, ., 2.8%

# These rows are one share of the data. The share of hits here may be higher or lower than overall.
